From PubChem BioAssay
A1 inhib = blocks A1 activity. MEF A1-2A-BIM cells, caspase-Glo luminescence, 3 h; percent of clofoctol signal, DMSO as zero. caspase activation, % (test concentration not listed). 0.51% of 21,000 active;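 active = most replicate scores above 10, or exactly half above 10 with mean activity above 10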;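 also: effector caspase 3 and 7 activity cleaving a DEVD luciferin substrate; 50 nL library stock added to about 30 µL; numbers are from one replicate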
BJeLR viability = BJeLR cell viability reduction | 0.64% of 30,000 active | BJeLR fibroblasts viability, CellTiterGlo ATP luminescence, 48 h; HRASV12, hTERT and SV40 LT/ST transformed | viability loss activity score, % (concentration not given with the values); in the data active = viability loss activity score above about 50%; about a fifth of its hits are not listed in these tables;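 also: higher score means fewer live cells and less ATP luminescence; stock transfer was 50 or 100 nL into about 30 µL; 0% = vehicle wells and 100% = a reference killing control; one replicate is shown; the record names a cut of 85%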
* hit, by the source's call; . = no result given. An excerpt (hit frequency here may not be typical).

SMILES | A1 inhib | BJeLR viability
CNC(=O)C1CC(=O)N(CCc2ccc(C)cc2)C1 (stereo not given) | -0.2 | 1.2
Cc1ccc(S(=O)(=O)N(C)C[C@H]2Oc3ccc(NC(=O)Nc4ccccc4)cc3C(=O)N([C@H](C)CO)C[C@@H]2C)cc1 | 0.3 | -1.7
CSc1nc(C)cc(OCC(=O)N2CCCCC2)n1 | . | 0.3
CCCn1c(SCCCc2ccccc2)nc2c1c(=O)[nH]c(=O)n2C | -0.8 | -2.1
CCn1c(=O)c2cc(C(=O)N(C)c3cccc(C(F)(F)F)c3)sc2c2ccccc21 | . | -6.0
O=C(c1nn2c(C(F)(F)F)cc(-c3ccccc3)nc2c1Br)N1CCN2CCCC2C1 (stereo not given) | 0.2 | -0.4
O=C(NC(=S)c1c(-c2ccccc2)cc2ccccn12)c1ccccc1 | . | 0.9
Cc1noc2ncnc(SCC(=O)Nc3cc(Cl)cc(Cl)c3)c12 | -0.1 | 1.8
C[C@@H]1CN([C@@H](C)CO)C(=O)c2cccc(NS(=O)(=O)c3ccc(F)cc3)c2O[C@H]1CN(C)S(=O)(=O)c1ccc(Cl)cc1 | . | -1.7
Cc1noc(C)c1NC(=O)Nc1cccc2c1O[C@@H](CN(C)C(=O)Nc1ccc3c(c1)OCO3)[C@@H](C)CN([C@@H](C)CO)C2=O | . | -0.5
Cc1nn(CCCC(=O)N(C)Cc2ccccc2)c(=O)c2cc3sccc3n12 | -0.4 | -2.1
Cc1noc(C)c1NC(=O)N(C)C[C@H]1Oc2ccc(NS(C)(=O)=O)cc2C(=O)N([C@H](C)CO)C[C@H]1C | 1.1 | 1.0
C[C@H]1[C@H](C)CC[C@]2(C(=O)O)CC[C@]3(C)C4=CCC5C(C)(C)[C@@H](O[C@@H]6O[C@H](C(=O)O)[C@@H](O)[C@H](O)[C@H]6O)CC[C@]5(C)C4CC[C@@]3(C)[C@H]12 (stereo not given in full) | -0.1 | 7.8
O=C1c2ccccc2CN1CCNS(=O)(=O)c1ccc2oc3ccccc3c2c1 | -0.6 | -5.1
C[C@H](CO)N1C[C@H](C)[C@@H](CN(C)C(=O)Nc2cccc3ccccc23)Oc2ccc(NS(=O)(=O)c3ccc(Cl)cc3)cc2C1=O | 0.0 | 3.1
COc1ccc(-c2cc(=O)c3c(OC)c(OC)c(OC)c(OC)c3o2)cc1 | -0.6 | -7.3
C=C(C(=O)O)C(CCCCCCO)C(=O)O (stereo not given) | 0.6 | 5.3
CCOC(=O)c1c(-c2ccccc2)oc2c(-c3ccccc3)cc(O)cc12 | . | -0.6
CC(Sc1nc(-c2ccccc2)cc(C(F)(F)F)n1)C(=O)O (stereo not given) | . | -4.5
Cc1ccc(CN2CC34C=CC(O3)C(C(=O)NCCc3ccc(Cl)cc3)C4C2=O)cc1 (stereo not given) | . | 1.7
Clc1ccccc1CSc1nc(NCC2CCCO2)c2ccccc2n1 (stereo not given) | -0.3 | 6.5
C[C@H]1CN([C@@H](C)CO)C(=O)c2cc(NS(=O)(=O)c3cccs3)ccc2O[C@@H]1CN(C)C(=O)Nc1ccc(C(F)(F)F)cc1 | -0.6 | -4.1
FC(F)(F)c1ccc(-c2nc(-c3cc(-c4ccccc4)no3)cs2)cc1 | -0.5 | -4.0
C[C@H](CO)N1C[C@H](C)[C@H](CN(C)Cc2ccc3c(c2)OCO3)Oc2c(NC(=O)Nc3ccc(F)cc3)cccc2C1=O | . | 4.7
C[C@@H]1CN([C@@H](C)CO)C(=O)c2cc(NC(=O)C3CC3)ccc2O[C@H]1CN(C)C(=O)Nc1ccc2c(c1)OCO2 | -0.2 | 0.7
SMILES | A1 inhib | BJeLR viability
O=C1NC2(CCN(C(=O)c3ncoc3-c3ccccc3)CC2)Oc2ccccc21 | 0.0 | -1.0
CSc1ccc(-c2nc3ccc(C)cn3c2NC2CCCCC2)cc1 | . | 0.9
Cc1noc(C)c1NC(=O)Nc1ccc2c(c1)C(=O)N([C@H](C)CO)C[C@@H](C)[C@H](CN(C)C(=O)NC1CCCCC1)O2 | -0.6 | -1.6
C[C@@H]1CN([C@H](C)CO)C(=O)c2cc(NC(=O)CCCN(C)C)ccc2O[C@@H]1CN(C)S(=O)(=O)c1ccc(Cl)cc1 | 0.1 | 3.9
N#CC1=C(N)C(C#N)=c2s/c(=C/c3cccc(F)c3)c(=O)n2C1c1cccc(F)c1 (stereo not given) | -0.4 | -4.1
COc1ccc(NC(=O)Nc2ccc3c(c2)C(=O)N([C@H](C)CO)C[C@H](C)[C@H](CN(C)C(=O)Nc2cccc4ccccc24)O3)cc1 | 0.5 | -1.3
Cc1nc(CCNC(=O)c2ccccc2)cs1 | -0.4 | 4.9
COc1ccc(-c2ccnc(SCC(=O)N3CCOCC3)n2)cc1 | -0.6 | -2.7
CNC[C@@H]1Oc2ccc(NS(C)(=O)=O)cc2C(=O)N([C@@H](C)CO)C[C@H]1C | 1.2 | -4.9
COc1ccc(OCCn2c(-c3ccc(Cl)cc3)nc3ccccc3c2=O)cc1 | -0.4 | -0.5
CCOC(=O)c1c(N=CN(C)C)c(C#N)c2n1CCC2 | 0.7 | -3.8
CC(C)NC(=O)N(C)C[C@@H]1Oc2ccc(N(C)C)cc2C(=O)N([C@@H](C)CO)C[C@H]1C | 0.6 | -6.1
CN(Cc1ccccc1)C(=O)c1cnc2sccn2c1=O | . | 3.0
CS(=O)(=O)c1ccc([C@@H](O)[C@@H](CO)NC(=O)C(Cl)Cl)cc1 | -0.6 | -9.7
C[C@H](CO)N1C[C@H](C)[C@@H](CN(C)C(=O)Nc2ccccc2)Oc2ccc(NC(=O)C3CC3)cc2C1=O | 0.6 | -0.4
Cc1onc(-c2ccccc2)c1C(=O)NC1C(=O)N2[C@@H]1SC(C)(C)[C@@H]2C(=O)O (stereo not given in full) | 0.9 | -0.5
C=CCn1c(SCC(=O)N2CCc3ccccc3C2)nnc1-c1ccccc1OC | 0.5 | -5.2
C[C@@H]1CN([C@H](C)CO)C(=O)c2cccc(NC(=O)Nc3ccc4c(c3)OCO4)c2O[C@@H]1CN(C)Cc1ccncc1 | . | -0.5
O=c1c(-c2nnnn2-c2ccccc2)c[nH]c2ccccc12 | . | 0.2
CC1CCC(C(C)C)C(=O)/C1=C/c1ccc(N(C)C)cc1 (stereo not given) | -0.1 | 3.0
C[C@@H]1CN([C@@H](C)CO)C(=O)c2cc(NS(=O)(=O)c3ccc(F)cc3)ccc2O[C@@H]1CN(C)Cc1ccc(Cl)c(Cl)c1 | -0.1 | -0.2
COC(=O)C1=C(C)NC(=S)NC1c1cn(-c2ccccc2)nc1-c1cccs1 (stereo not given) | 0.8 | -2.2
COC(=O)CN1C(=O)/C(=C\c2ccc(O)cc2)SC1=S | 0.6 | -1.3
CCN1C(=O)c2cccc3c(S(=O)(=O)N4CCc5ccccc5C4)ccc1c23 | 0.4 | -5.5
C[C@@H]1CN([C@@H](C)CO)C(=O)c2cc(NC(=O)Nc3cccc4ccccc34)ccc2O[C@@H]1CN(C)Cc1ccccc1 | -0.8 | -5.9
SMILES | A1 inhib | BJeLR viability
O/N=C1/C2CN3CCN(C2)CC1(Cc1ccccc1)C3 | 0.0 | -1.1
COc1ccccc1N1CCN(C(=O)c2cnn3c(C)c(Cc4cccc(C)c4)c(C)nc23)CC1 | -0.1 | -0.5
CC(C)NC(=O)CSc1nnc(-c2ccc(C(C)(C)C)cc2)n1-c1ccc2c(c1)OCO2 | . | 3.6
C=C1[C@H]2CC[C@@]3(C)[C@H](c4ccoc4)OC(=O)C[C@]13O[C@H]1C[C@H](O)C(C)(C)[C@H](CC(=O)OC)[C@]12C | -1.6 | 1.7
CC(C)N(Cc1ccccc1)S(=O)(=O)c1ccc2c(c1)CCO2 | -0.5 | 30
CCC(NC(=O)c1cc(OC)c(OC)c(OC)c1)C12CC3CC(CC(C3)C1)C2 (stereo not given) | -0.1 | -2.9
C[C@H]1CN([C@@H](C)CO)C(=O)c2cccc(NC(=O)Nc3ccccc3)c2O[C@@H]1CN(C)Cc1ccc(C(=O)O)cc1 | . | 1.6
C[C@@H]1CN([C@@H](C)CO)C(=O)c2cccc(NS(=O)(=O)c3cccs3)c2O[C@@H]1CN(C)Cc1ccc(C(=O)O)cc1 | . | 3.8
Cc1cc(OCc2noc(CSc3ccc(C(F)(F)F)cn3)n2)cc(C)c1Cl | 0.0 | 0.6
CNC(=S)NC1CC2CCC1C2 (stereo not given) | . | -6.6
c1ccc(CN2CCN(Cc3ccccc3)C2c2ccc3c(c2)OCO3)cc1 | 0.0 | 5.7
O=C(/C=C1\Sc2ccccc2NC1=O)NCCCN1CCC(Cc2ccccc2)CC1 | . | 0.8
Cc1ccc(S(=O)(=O)Nc2cccc3c2O[C@@H](CN(C)Cc2ccc(C(=O)O)cc2)[C@H](C)CN([C@@H](C)CO)C3=O)cc1 | . | -2.6
C[C@H]1CN([C@@H](C)CO)C(=O)c2cccc(NS(=O)(=O)c3ccccc3)c2O[C@H]1CN(C)S(=O)(=O)c1ccc(Cl)cc1 | . | 0.9
COc1ccc(S(=O)(=O)Nc2cccc3c2O[C@@H](CN(C)S(=O)(=O)c2c(C)noc2C)[C@H](C)CN([C@@H](C)CO)C3=O)cc1 | . | -3.3
COc1ccc(NC(=O)N(C)C[C@@H]2Oc3ccc(NC(=O)Nc4cccc5ccccc45)cc3C(=O)N([C@@H](C)CO)C[C@H]2C)cc1 | -1.1 | 3.1
CC(C)NC(=O)Nc1ccc2c(c1)C(=O)N([C@H](C)CO)C[C@@H](C)[C@@H](CN(C)Cc1ccncc1)O2 | -0.9 | -1.2
O=C(CCc1ccccc1)NCCN1CCN(C(=O)CCc2ccccc2)CC1 | 0.3 | 2.9
C[C@H]1CN([C@@H](C)CO)C(=O)c2cccc(NC(=O)c3ccc(-c4nccs4)cc3)c2O[C@H]1CN(C)Cc1ccc(-c2ccccc2)cc1 | . | -6.9
O=C(c1cccc(Cl)c1)N1CCOCC1 | 0.3 | -2.6
OC[C@@]1(O)CO[C@H](OC[C@H]2O[C@@H](OC(CCCCc3ccc(O)cc3)CCc3ccc(O)cc3)[C@H](O[C@H]3OC[C@](O)(CO)[C@H]3O)[C@@H](O)[C@@H]2O)[C@@H]1O (stereo not given in full) | -0.9 | -3.8
COc1cc(O)cc(OC)c1OC | -0.2 | -6.2
C[C@H](CO)N1C[C@H](C)[C@@H](CN(C)Cc2ccc3c(c2)OCO3)Oc2c(cccc2N(C)C)C1=O | . | 0.9
COC(=O)c1sc(=S)n(-c2cc(OC)ccc2OC)c1N | -0.8 | 3.6
C[C@@H]1CN([C@@H](C)CO)C(=O)c2cc(NS(=O)(=O)c3cccs3)ccc2O[C@H]1CN(C)S(=O)(=O)c1ccc(Cl)cc1 | 0.2 | 4.0

Looked up by compound from above:
SMILES | A1 inhib | BJeLR viability
COC(=O)c1sc(=S)n(-c2cc(OC)ccc2OC)c1N | -0.8 | 3.6
CC(C)NC(=O)Nc1ccc2c(c1)C(=O)N([C@H](C)CO)C[C@@H](C)[C@@H](CN(C)Cc1ccncc1)O2 | -0.9 | -1.2
CCC(NC(=O)c1cc(OC)c(OC)c(OC)c1)C12CC3CC(CC(C3)C1)C2 (stereo not given) | -0.1 | -2.9
C[C@@H]1CN([C@@H](C)CO)C(=O)c2cc(NS(=O)(=O)c3cccs3)ccc2O[C@H]1CN(C)S(=O)(=O)c1ccc(Cl)cc1 | 0.2 | 4.0

A draw from above in order of molecular weight, highest first.
SMILES | A1 inhib | BJeLR viability
Cc1ccc(S(=O)(=O)Nc2cccc3c2O[C@@H](CN(C)Cc2ccc(C(=O)O)cc2)[C@H](C)CN([C@@H](C)CO)C3=O)cc1 | . | -2.6
Cc1ccc(S(=O)(=O)N(C)C[C@H]2Oc3ccc(NC(=O)Nc4ccccc4)cc3C(=O)N([C@H](C)CO)C[C@@H]2C)cc1 | 0.3 | -1.7
Cc1nn(CCCC(=O)N(C)Cc2ccccc2)c(=O)c2cc3sccc3n12 | -0.4 | -2.1
O=C1NC2(CCN(C(=O)c3ncoc3-c3ccccc3)CC2)Oc2ccccc21 | 0.0 | -1.0

(listing goes on)
SMILES | A1 inhib | BJeLR viability
Cc1cc(=O)nc2c3ccccc3n(CC(=O)N3CCCC3)n12 | -1.9 | 1.3
C[C@H]1CN([C@@H](C)CO)C(=O)c2cc(NC(=O)CCC(F)(F)F)ccc2O[C@@H]1CN(C)Cc1ccc(C(F)(F)F)cc1 | 0.0 | -2.0
C[C@@H]1CN([C@@H](C)CO)C(=O)c2cccc(NC(=O)c3ccc(-c4nccs4)cc3)c2O[C@H]1CN(C)Cc1ccc(C(=O)O)cc1 | . | -1.1
C[C@H]1CN([C@@H](C)CO)C(=O)c2cccc(NC(=O)Nc3ccc(C(F)(F)F)cc3)c2O[C@H]1CN(C)Cc1ccncc1 | . | -1.9
O=C(SC1=NCCS1)c1cccc(Cl)c1 | . | 0.1
CC1CCN(C(=O)Cn2nc(-c3ccc(Cl)cc3)ccc2=O)CC1 | 1.1 | 7.9
Cc1ccc(S(=O)(=O)NC2CCCCC2)cc1-c1nnc2c3ccccc3c(C)nn12 | . | -5.4
Cc1ccc(-c2csc3ncnc(NCCN4CCNC4=O)c23)cc1 | 0.9 | 2.2
COc1ccc(NC(=O)Nc2cccc3c2O[C@H](CN(C)Cc2ccc(Cl)c(Cl)c2)[C@H](C)CN([C@@H](C)CO)C3=O)cc1 | . | -1.6
C=CCNc1ncnc2c1c(-c1ccccc1)cn2-c1ccc(OCC)cc1 | -0.6 | -1.7
COc1ccc(NC(=O)N(C)C[C@H]2Oc3c(NC(=O)NC4CCCCC4)cccc3C(=O)N([C@H](C)CO)C[C@@H]2C)cc1 | . | -0.8
